MT1-MMP promoter = MT1-MMP gene expression reporter suppression – cell-based, luciferase reporter, luminescence (AID 618); 87,000 tested, 0.62% active; calls from a first round at 10 µM; hits with a dose series show EC50 in µM; MT1-MMP promoter luciferase reporter cells, luminescence;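 active = over half of the reporter light lost at 10 µM or EC50 under 50 µM; inactive = the rest and hits that failed the dose series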;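 also: actives suppress MT1-MMP promoter-driven transcription so potencies describe inhibitors; HT1080 fibrosarcoma cells; overnight exposure; toxic or luciferase-blocking compounds were not removed from the actives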
Hsc70 ATP site = small molecules displacing fluorescent ligand from Hsc70 – biochemical, fluorescence polarization, primary screen (AID 568) | Hsc70 fluorescence polarization, probe displacement; higher % means a stronger effect; strong numbers were not always called active | one-dose displacement, % at 20 µM; IC50 in µM for titrated hits | 83,000 tested, under 10 active;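 active = displacement above 50% without optical interference and an IC50 on retest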;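 also: ATPase domain with a fluorescein-tagged ATP probe; 0% = vehicle and 100% = excess ADP; read after one hour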
WNV NS2B-NS3 inh = blocks West Nile virus NS2B-NS3 protease activity; z-score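 (tested at a level between 10 and 100 µM)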; 65,000 tested, 0.18% active; WNV NS2B-NS3 protease, fluorogenic substrate Ex360/Em465; hits give low values; P06935;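 active = z-score at -3 or under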;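 also: score is relative to mean and spread of the compound wells of a plate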
Target sequence (P06935 1371-1501 limits assumed): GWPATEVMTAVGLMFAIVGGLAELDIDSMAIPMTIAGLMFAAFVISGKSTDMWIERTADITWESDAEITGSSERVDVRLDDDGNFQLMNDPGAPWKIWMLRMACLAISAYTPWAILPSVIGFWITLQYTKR
Target sequence (P06935 1502-1679 limits assumed): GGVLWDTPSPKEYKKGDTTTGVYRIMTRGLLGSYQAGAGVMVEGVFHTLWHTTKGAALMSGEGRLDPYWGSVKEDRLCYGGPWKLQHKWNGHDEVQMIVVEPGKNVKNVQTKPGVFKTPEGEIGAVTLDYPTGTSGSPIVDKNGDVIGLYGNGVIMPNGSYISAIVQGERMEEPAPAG
* marks the source's active call; other numbers are inactive results; i = inactive; / = no result given.

SMILES	MT1-MMP promoter	Hsc70 ATP site	WNV NS2B-NS3 inh
COc1ccccc1NC(=O)C1CCN(c2ncccn2)CC1	i	6.3%	-0.03
CC(Sc1ccc2c(c1)OCCO2)C(=O)Nc1ccc2c(c1)OCO2 (centres undefined)	i	-1.4%	0.38
CC1CCCCC1NC(=O)CCn1c(=O)oc2ccccc21 (centres undefined)	i	-3.5%	0.27
O=S(=O)(c1ccccc1)c1nc(-c2ccco2)oc1N1CCCCCC1	i	-5.3%	-0.32
CN(C(=O)COC(=O)C1c2ccccc2Oc2ccccc21)C1CCS(=O)(=O)C1 (centres undefined)	i	3.4%	0.22
CCC1=NN=C(c2ccc(F)cc2)C(c2c[nH]c3ccccc23)N1O (centres undefined)	i	0.1%	/
O=C1NCCc2cc3c(cc21)OCO3	i	-4.7%	/
CCOC(=O)c1cccc(NS(=O)(=O)c2cnc[nH]2)c1	i	8.9%	0.64
Cc1ccc2nsnc2c1NS(=O)(=O)c1c(C)ccc2nsnc12	i	-2.7%	1.5
COc1ccc(Nc2ccnc3ccccc23)cc1	i	5.1%	0.53
Clc1cccc(Cl)c1-c1nnc2ccc(N3CCOCC3)nn12	i	-1.3%	-0.9
C/C(=N\NC(=O)c1csc(C)c1C)c1ccco1	i	1.3%	/
Cc1cc(C)n2nc(NCc3ccccc3)nc2n1	i	-2.7%	-0.57
CC(=O)c1cc2c(cc1NC(=O)C1CC=CCC1C(=O)O)OCO2 (centres undefined)	i	-4.6%	-1.6
Cn1c(SCc2nc3ccccc3[nH]2)nnc1-c1cnccn1	i	-4.5%	-0.76
CCCCCCc1cc2cc(-c3nnc(-c4cc(OC)c(OC)c(OC)c4)o3)c(=O)oc2cc1O	i	-92%	/
COc1ccc(C2Nc3ccccc3C(=O)N2Cc2ccco2)cc1CN1C(=O)c2ccccc2C1=O (centres undefined)	i	4.1%	-0.14
CCOc1ccc(NC(=O)N2CCN(CC)CC2)cc1	i	-1.2%	-0.36
CCC(C)(C)NC(=O)C(c1ccc(OC)cc1)N(CC1CCCO1)C(=O)CCC(=O)Nc1cc(C)on1 (centres undefined)	i	1.1%	/
COCCNC(=O)C(c1ccco1)N(Cc1ccc(OC)cc1)C(=O)Cn1nnc2ccccc21 (centres undefined)	i	0.3%	-0.74
CCOC(=O)CSc1nc2c(c(=O)n(C)c(=O)n2C)n1Cc1ccccc1F	i	0.1%	0.41
O=c1c2cnn(-c3ccccc3)c2ncn1Cc1ccccc1F	i	-5.1%	0.81
COc1ccc(S(=O)(=O)NC(CC(=O)NC2CCCC2)c2ccco2)cc1 (centres undefined)	i	5.8%	0.24
NC(=O)CSc1nnc(Cn2c(=O)sc3ccccc32)n1-c1cccc(Cl)c1	i	-0.2%	-0.11
CC(C)Oc1snc(Cl)c1C(N)=O	i	1.8%	0.78
CCCCOc1ccc(C(=O)Nc2cc(C)c(OCC(=O)N3CCOCC3)c(C)c2)cc1	i	7.4%	/
O=C(Nc1ccc2c(c1)OCCO2)C1CCN(C(=O)c2ccccc2)CC1	i	2.6%	/
C=CCn1c(Cc2c[nH]c3ccccc23)n[nH]c1=S	i	0.3%	0.64
COc1cccc(C2c3c(oc4ccccc4c3=O)C(=O)N2c2ccccn2)c1 (centres undefined)	i	0.1%	-0.04
CCOc1cccc(-c2nnc3sc(COc4ccccc4)nn23)c1	i	-1.4%	1.1
Cc1ccc2[nH]c(=O)c(CN(CCN3CCOCC3)C(=O)Nc3ccc(F)cc3)cc2c1	i	3.9%	0.64
Cc1ccc(Cn2ccc(NC(=O)c3cc(-c4ccccc4)on3)n2)cc1	i	5.2%	0.04
COc1ccc(CCNC(=O)c2cnc3n(c2=O)CCS3)cc1OC	i	-2.8%	-0.62
CC(/C=C/c1ccccc1)=N/O	i	-2.5%	0.37
COCCc1ccc(OCC(O)CNC(C)C)cc1 (centres undefined)	i	-3.8%	-0.58
COc1ccc(N2CCN(C(=O)CSc3nnc4ncccn34)CC2)cc1	i	2.8%	0.58
CC1CCCCC1NC(=O)COC(=O)c1ccc(S(=O)(=O)N2CCOCC2)cc1 (centres undefined)	i	5.8%	-0.06
COc1ccc(N2CCN(Cc3nc(N)nc(N4CCCc5ccccc54)n3)CC2)cc1	i	-4.6%	-0.83
C=CCn1c(SCC(=O)Nc2cc(C)nn2-c2ccccc2)nnc1C1CCCCC1	i	-2.9%	0.03
COc1ccc(Cc2nc(C(=O)Nc3ccc(Cl)cc3)cs2)cc1	i	5.4%	/
O=S(=O)(c1ccc2c(c1)oc1ccccc12)N1CCOCC1	i	3.2%	-1.1
O=C(NCc1ccco1)c1cnn2c(C(F)(F)F)cc(-c3ccco3)nc12	i	-1.8%	-0.41
CCn1c(SCC(=O)NCCc2ccc(F)cc2)nnc1-c1cccs1	i	-1.2%	-2.1
COc1cc(OC)c(NC(=O)CCNC(=O)Cn2cnc3ccccc3c2=O)cc1Cl	i	-3.3%	-1.2
NC(=O)CSc1nnc(-c2ccncc2)n1-c1ccc(Cl)cc1	i	3.3%	0.3
COc1cc(NS(=O)(=O)c2ccc3c(c2)n(C)c(=O)n3C)cc(OC)c1	i	1.6%	/
O=C(Cn1cnc2ccccc2c1=O)Nc1cccc(-c2nnc3n2CCCCC3)c1	i	-0.5%	/
CCn1c(SCC(=O)Nc2oc(-c3ccccc3)c(-c3ccccc3)c2C#N)nnc1-c1ccco1	i	0.9%	0.45
Nc1nc(-c2ccc(Br)cc2)cs1	i	-2.2%	0.23
CC1CN(c2nc3c(c(=O)n(Cc4ccc(Cl)c(Cl)c4)c(=O)n3C)n2C)CC(C)O1 (centres undefined)	i	2.6%	0.11
COc1ccc(CCNC(=O)CN2C(=O)c3ccccc3S2(=O)=O)cc1OC	i	4.7%	0.12
CCCCn1c(-c2cccs2)nc2nc3ccccc3nc21	i	-4.4%	/
Cc1nnc(SCC(=O)NCc2ccccc2)s1	i	3.2%	-0.49
COc1ccc(N2C(=O)CC(N3CCN(c4nc5ccccc5s4)CC3)C2=O)cc1 (centres undefined)	i	4.5%	-0.68
CCS(=O)(=O)n1nc(NCc2cccc(OC)c2)nc1NCc1cccc(OC)c1	i	2.8%	-0.58
O=C(CC(Nc1ccc(F)cc1)C(=O)O)c1ccccc1 (centres undefined)	i	-5.6%	0.16
COC(=O)C1=C(C)N=C2SCCC(=O)N2C1c1ccc(OC(=O)c2ccco2)cc1 (centres undefined)	i	-0.4%	/
CCCc1nnc(NC(=O)CN2C(=O)c3ccccc3S2(=O)=O)s1	i	-5.9%	-1.3
Cc1nc(NC(=O)CSc2nnnn2Cc2ccccc2)sc1C	i	7.8%	-0.77
CC1=CC2=NC(=O)CC(C)(C(=O)N(CC(=O)NC(C)(C)C)C3CCCC3)N2C=C1 (centres undefined)	i	-0.4%	-1.1

Random excerpt: 7 records from the list, in no set order.
SMILES	MT1-MMP promoter	Hsc70 ATP site	WNV NS2B-NS3 inh
O=C(CC(Nc1ccc(F)cc1)C(=O)O)c1ccccc1 (centres undefined)	i	-5.6%	0.16
Cc1nnc(SCC(=O)NCc2ccccc2)s1	i	3.2%	-0.49
NC(=O)CSc1nnc(-c2ccncc2)n1-c1ccc(Cl)cc1	i	3.3%	0.3
CCn1c(SCC(=O)NCCc2ccc(F)cc2)nnc1-c1cccs1	i	-1.2%	-2.1
CCCc1nnc(NC(=O)CN2C(=O)c3ccccc3S2(=O)=O)s1	i	-5.9%	-1.3
COc1ccc(N2C(=O)CC(N3CCN(c4nc5ccccc5s4)CC3)C2=O)cc1 (centres undefined)	i	4.5%	-0.68
Nc1nc(-c2ccc(Br)cc2)cs1	i	-2.2%	0.23

(further entries)
SMILES	MT1-MMP promoter	Hsc70 ATP site	WNV NS2B-NS3 inh
Cn1nnc2sc3c(c2c1=O)CCCC3	i	-0.3%	/
O=C(CN1CCOCC1)N(c1ccccc1)c1ccc2ccccc2c1	i	9.1%	0.77
Cc1cc(/C=N/n2cnnc2)c(C)n1-c1ccc(C(=O)O)cc1	i	-8.0%	1.3
O=C(Cc1ccc(-n2cnnn2)cc1)NC12CC3CC(CC(C3)C1)C2	i	-0.9%	-0.24
O=C(CNC(=O)c1ccc(Br)o1)Nc1cccc(-c2cnc3ccccc3n2)c1	i	-3.8%	-0.89
Cc1cc(C)n(CCCNC(=O)c2ccc(S(=O)(=O)NCc3ccco3)cc2)n1	i	-2.0%	-0.51
O=C(Nc1nc2ccccc2[nH]1)c1ccc(Cl)c(S(=O)(=O)N2CCCC2)c1	i	17%	/
Cc1ccc2cccc(SCC(=O)NCc3ccco3)c2n1	i	-5.3%	0.65
CCOC(=O)c1cnc(SC2CC(=O)N(c3ccc(OC)c(OC)c3)C2=O)nc1N (centres undefined)	i	2.8%	0.22
CCC(Sc1nc(=O)cc(N)n1CCc1ccccc1)C(=O)Nc1cc(C)on1 (centres undefined)	i	-1.0%	1.5
C=CCC(=O)OCC(=O)Nc1ccc(Cl)cn1	i	-1.7%	/
CCOC(=O)c1nnn(CC(=O)N2N=C(c3ccc(Cl)cc3)CC2c2ccccc2)c1C(=O)OCC (centres undefined)	i	-4.4%	/
CN1CCCN(Cc2ccc(Cl)cc2Cl)CC1	i	2.6%	/
O=C1Nc2ccc(S(=O)(=O)N3CCCC3C(=O)O)c3cccc1c23 (centres undefined)	i	2.3%	-0.27
CN(C)c1nc(Oc2ccc(=O)n(C)n2)nc(N2CCOCC2)n1	i	-0.4%	1.4
COc1cc(NC(=O)C2CCCN2S(=O)(=O)c2ccc3c(c2)CCC(=O)N3)cc(OC)c1 (centres undefined)	i	-2.9%	-0.51
CCOC(=O)c1ccc(NC(=O)CSc2nnc(COc3ccccc3OC)n2C)cc1	i	4.7%	-2.4
CCOC(=O)C1CCN(c2ncnc3c2oc2ccccc23)CC1	i	8.8%	0.26
Cn1c(CCN2CCOCC2)nc2cc(NC(=O)COc3ccccc3)ccc21	i	-0.1%	-1
Brc1cnc(N2CCCC2)nc1N1CCCCC1	i	1.9%	-0.6
CN(C)S(=O)(=O)c1cccc(N=c2scc(-c3ccc4c(c3)NC(=O)CO4)n2CC2CCCO2)c1 (centres undefined)	i	2.6%	/
O=C(CCc1ccc(S(=O)(=O)NCCc2ccccc2)cc1)NCc1ccco1	i	-6.6%	/
COC(=O)[C@H](CC(C)C)NC(=O)NC1CCCc2ccccc21 (some centres undefined)	i	2.2%	-0.53
N#Cc1c(N)c(C(=O)c2ccccc2)n2c1CCC2	i	2.4%	-0.58
CCOC(=O)c1c(Nc2nc(C)c(C(=O)NC)s2)sc(C)c1C	i	-2.3%	-1.1
CCOC(=O)Cn1c(CN(C)Cc2ccccc2)nc2c1c(=O)n(C)c(=O)n2C	i	1.8%	-0.07
CN(C)c1ccc(-c2nn3c(-c4ccccc4Cl)nnc3s2)cc1	i	-1.8%	-0.11
Cc1ccc(NC(=O)N2CCN(Cc3ccc4c(c3)OCO4)CC2)cc1	i	-2.4%	/
Cc1nnc(SCC2CCCO2)n1-c1ccccc1 (centres undefined)	i	7.9%	0.05
COc1cc(Cl)c(C)cc1NC(=O)CSCC#N	i	-4.0%	/
O=C(O)C1CCCN1C(=O)Nc1ccc(F)cc1 (centres undefined)	i	-2.2%	0.74
CN(CC(O)COCc1cccs1)C1CCCCC1 (centres undefined)	i	0.1%	-0.22
COc1ccc(Nc2nc(C)cc(C)c2C(N)=O)c(OC)c1	i	6.8%	0.1
O=c1cc(CN2CCN(c3ccc(F)cc3)CC2)nc2sccn12	i	12%	1.1
Oc1ccc(C(=S)N2CCCCC2)cc1Cl	i	1.5%	0.6
CCC(C)NC(=O)Cn1cc2c(n1)CCC(C)C2 (centres undefined)	i	-0.9%	1.4
N#Cc1nc(-c2cccs2)oc1NCCc1ccccc1	i	2.6%	1.6
COc1ccccc1-c1ccc(Nc2cccc(C(F)(F)F)c2)nn1	i	1.3%	/
CCOC(=O)N1CCN(S(=O)(=O)c2cc(OCC(N)=O)c(C)cc2Cl)CC1	i	4.3%	-1.2
CC(=O)Nc1ccc(OCC(O)CN2CCN(S(=O)(=O)c3ccc(NC(C)=O)cc3)CC2)cc1 (centres undefined)	i	2.2%	/
CC1=C(C(=O)OCC(C)C)[C@]23C(=O)c4ccccc4[C@@]2(O1)OC(N)=C3C#N	i	-6.0%	/
CCOC(=O)C1=CSC2=NS(=O)(=O)CCN12	i	5.9%	-0.16
CCOC(=O)c1cc(-c2ccc(Cl)cc2)nc2c1c(C)nn2CCC#N	i	-1.3%	/
CCc1nnc(NC(=O)c2ccc(S(=O)(=O)N3CCCCC3C)cc2)s1 (centres undefined)	i	0.2%	-0.12
CCOc1ccc(NC(=O)CN2C(=O)C3CC=CCC3C2=O)cc1 (centres undefined)	i	5.0%	-0.92
COc1cccc(OC)c1C(=O)NC(C)C12CC3CC(CC(C3)C1)C2 (centres undefined)	i	2.2%	/
Cc1ccc2nc(NC(=O)c3ccco3)sc2c1	1µM*	-2.6%	/
CC1CCCN(C(=O)Cn2c(=O)oc3ccccc32)C1 (centres undefined)	i	8.1%	-0.5

Of the compounds above, three contain bromine:
SMILES	MT1-MMP promoter	Hsc70 ATP site	WNV NS2B-NS3 inh
Nc1nc(-c2ccc(Br)cc2)cs1	i	-2.2%	0.23
O=C(CNC(=O)c1ccc(Br)o1)Nc1cccc(-c2cnc3ccccc3n2)c1	i	-3.8%	-0.89
Brc1cnc(N2CCCC2)nc1N1CCCCC1	i	1.9%	-0.6
